Screening data deposited in PubChem BioAssay by Johns Hopkins Ion Channel Center.
KCNQ2 block: KCNQ2 channel blockers in CHO-K1 cells – cell-based, FluxOR thallium flux, B-score, primary screen (AID 2156) | 20 min; hits give low values; only compounds with negative scores are shown here; some inactives read as strong as hits | hit rate 1.1% among 310,000 | B-score at 10 µM | O88943;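 active means fluorescence ratio B-score at most minus 3 library SDs, with starting brightness B-score within 2 library SDs, cut at about -5.5 in these data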
Target sequence (O88943 whole entry, looked up): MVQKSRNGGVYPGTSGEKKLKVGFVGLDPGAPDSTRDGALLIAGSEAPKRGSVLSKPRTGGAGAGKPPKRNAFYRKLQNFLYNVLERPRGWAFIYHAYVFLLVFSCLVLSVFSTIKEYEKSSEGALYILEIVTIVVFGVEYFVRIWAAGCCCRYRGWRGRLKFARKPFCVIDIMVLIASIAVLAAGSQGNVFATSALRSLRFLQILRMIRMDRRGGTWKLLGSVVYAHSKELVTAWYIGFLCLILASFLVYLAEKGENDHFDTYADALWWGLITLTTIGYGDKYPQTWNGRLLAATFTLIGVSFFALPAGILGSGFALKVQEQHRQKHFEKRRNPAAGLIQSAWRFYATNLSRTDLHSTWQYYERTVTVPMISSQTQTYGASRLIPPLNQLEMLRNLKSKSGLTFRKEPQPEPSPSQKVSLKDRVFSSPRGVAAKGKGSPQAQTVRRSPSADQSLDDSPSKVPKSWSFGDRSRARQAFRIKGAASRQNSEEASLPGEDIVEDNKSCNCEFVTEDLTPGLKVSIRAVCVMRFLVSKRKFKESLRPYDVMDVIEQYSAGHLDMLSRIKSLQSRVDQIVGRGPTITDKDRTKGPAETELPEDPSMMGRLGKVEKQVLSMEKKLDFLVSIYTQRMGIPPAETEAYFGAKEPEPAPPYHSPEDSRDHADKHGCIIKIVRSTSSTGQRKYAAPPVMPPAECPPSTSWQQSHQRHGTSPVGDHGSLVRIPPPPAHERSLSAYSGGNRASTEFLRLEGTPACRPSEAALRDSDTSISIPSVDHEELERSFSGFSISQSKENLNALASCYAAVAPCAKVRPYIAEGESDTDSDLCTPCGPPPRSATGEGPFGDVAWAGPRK
KCNQ2 block baseline: second read-out of KCNQ2 block, no call of its own (marks repeat the call); B-score; measured here: initial fluorescence intensity artifact check;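 brightness before thallium and not channel activity; 0 = typical well and far values either way flag optical interference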
Starred values were filed as active, the others as inactive; i = inactive. Some of the compounds tested; count on the stated rates, not on these rows.

SMILES	KCNQ2 block	KCNQ2 block baseline
CCOc1ccccc1C(=O)NCC(=O)NCC(c1ccco1)N1CCCCC1 (configuration not stated)	i	3
OC(CN1CCCCC1)Cn1c(C(F)(F)F)nc2ccccc21 (configuration not stated)	i	1.1
Cc1cc(C(=O)Nc2ccc([N+](=O)[O-])cn2)cs1	i	-0.1
C[C@@H]1C=C[C@](Cc2ccccc2)(C(=O)O)N1C(=O)c1ccccc1	i	-1.3
CC1CCN(S(=O)(=O)c2ccc3c(c2)N(CC(=O)NCCCN2C(C)CCCC2C)C(=O)CO3)CC1 (configuration not stated)	i	0.86
COc1cc2ccccc2cc1C(=O)N1CCN(c2ccccn2)CC1	i	0.94
NS(=O)(=O)c1ccc(N/N=C2/CCCCC2C2CCCCC2)c([N+](=O)[O-])c1 (configuration not stated)	i	0.13
Cc1ccc(C)c(N2CCN(Cc3nnnn3C3CCCCC3)CC2)c1	i	1.3
CCOC(=O)c1nc2sc3c(c2c(=O)n1C(C)C(=O)OCC)CCCC3 (configuration not stated)	i	0.34
COC(=O)c1scc2c(=O)cc(C(F)(F)F)[nH]c12	i	8.9
Cc1ccc(CNC(=O)CCCNC(=O)c2ccc(Cl)cc2)n1C	i	2.6
Cn1c(C(=O)N2CCN(c3ccccn3)CC2)cc2ccccc21	i	-0.29
COC(=O)CN=Cc1c(C)[nH]n(-c2ccccc2)c1=O	i	-0.18
COc1cccc(C(=O)N2CCCC(CCC(=O)NCc3ccc(F)c(F)c3)C2)c1 (configuration not stated)	i	-0.78
Cc1ccc(O/C=C2\OC(=O)c3ccccc32)cc1	i	1.1
CCOC(=O)C1CCCN(C(=O)c2cccc(S(=O)(=O)N(Cc3ccccc3)c3ccccc3OC)c2)C1 (configuration not stated)	i	0.02
CC(NC(=S)NCc1ccccc1)C12CC3CC(CC(C3)C1)C2 (configuration not stated)	i	-0.42
COc1ccc(CCNC(=O)COc2ccc(S(=O)(=O)NC3CCCCC3)cc2Cl)cc1OC	i	-0.93
COc1ccc(C2c3ccc(O)cc3Oc3ncn4nc(-c5ccco5)nc4c32)cc1OC (configuration not stated)	i	0.09
O=C(NCCN1CCOCC1)Nc1ccc(F)cc1	i	-1.2

A different layout for part of the listing above.
KCNQ2 block	KCNQ2 block baseline	SMILES
i	0.34	CCOC(=O)c1nc2sc3c(c2c(=O)n1C(C)C(=O)OCC)CCCC3 (configuration not stated)
i	8.9	COC(=O)c1scc2c(=O)cc(C(F)(F)F)[nH]c12

New compounds follow.
SMILES	KCNQ2 block	KCNQ2 block baseline
COc1ccccc1C1C(C#N)=C(N)N(c2cccnc2)C2=C1C(=O)CC(C)(C)C2 (configuration not stated)	i	-0.38
CCCCCC(=O)Nc1cccc(C2=NOC3(C2)C[C@H](C(N)=O)N(C(=O)CCCCC)C3)c1 (some centres not stated)	i	-1.3
COc1ccc(N2C(=O)C3CCCN3C2c2cccc(C)c2)cc1 (configuration not stated)	i	0.43
CCc1nn(-c2ccccc2)c2c1-c1cc(OC)c(OC)cc1C1(N2)C(=O)Nc2ccccc21 (configuration not stated)	i	0.06
COC(=O)c1ccc(/C=N\NC(=O)c2ccc(C)cc2Cl)cc1	i	-0.92
Cc1cc2nc3c(=O)n(Cc4ccccc4)c(=O)[nH]c3nc2cc1N	i	13
CCCNC(=O)C1(O)c2cc(Br)ccc2NC(=O)N1c1ccc(Cl)cc1 (configuration not stated)	i	-1.5
Oc1ccc(CNCC2COc3ccccc3O2)cc1 (configuration not stated)	i	0.78
O=C1N=C(N2CCCC2)S/C1=C\c1cccc(Br)c1	i	1.2
O=C(NCC(=O)N1CCCC(C(F)(F)F)C1)c1ccc2ccccc2c1 (configuration not stated)	-6.9*	-0.85*
COc1ccccc1NS(=O)(=O)c1ccc(O)cc1	i	1.8
CN(C)c1nc(OCCNC(=O)COc2ccc(Cl)cc2Cl)nc(N(C)C)n1	i	0.45
CCCCCCSc1nnc(-c2cnn(-c3ccccc3)c2-n2cccc2)n1C	i	-1.8
CCN(c1cccc(C)c1)S(=O)(=O)c1csc(C(N)=O)c1	i	-0.27
Cc1cc(C)cc(NC(=O)COC(=O)CCCNC(=O)c2ccc(Cl)cc2)c1	i	0.92
COc1ccc(/C(O)=C/C(=O)C(=O)NNC(=O)C(O)(c2ccccc2)c2ccccc2)cc1	i	-0.79
Cc1cccc(CN2C(=O)CCSc3ccc(Cl)cc32)c1	i	2.3
Cc1ccc(C2=NC3(CCCCC3)NC2=S)cc1	i	1
Cc1cc(N2CCCCC2C)nc(-c2ccccc2O)n1 (configuration not stated)	i	-0.25
O=C(OCC(=O)N1CCN(C(=O)c2ccco2)CC1)c1cc(-c2ccc(Cl)c(Cl)c2Cl)nc2ccccc12	i	-1.1
COCCN1Cc2cccc(C(=O)Nc3ccc(C)c(C)c3)c2C1=O	i	-0.99
CCOC(=O)c1ccc(NC(=O)c2nc[nH]c2C(=O)N[C@@H](CC(C)C)C(=O)OC(C)(C)C)cc1	i	-0.91
Cc1cc(C)n(Cc2ccc(NC(=O)c3c([N+](=O)[O-])c(C)nn3C)cc2)n1	i	0.11
CCOC(=O)C1=C(CSc2nc(-c3ccccc3)ccc2C#N)OC(N)=C(C#N)C1c1cccnc1 (configuration not stated)	i	-1.7
COc1ccc(C2=C(CC(=O)O)C(=O)CC2)cc1	i	-1.1
Cc1ccc(CNC(=O)c2cc(-c3ccccc3)nn2Cc2cc(C)no2)cc1	i	-2.1
CC1CN(C(=O)CSc2cn(CC(=O)N3CCOCC3)c3ccccc23)CC(C)O1 (configuration not stated)	i	-0.27
CO/N=C(\Cn1ncc(NC2CCCCC2)c(Br)c1=O)c1ccc(Cl)cc1	-6.2*	0.07*
COc1cccc(-n2cc(CN(C)Cc3nc(Cc4ccccc4)no3)cn2)c1	i	1.3
CCOC(=O)c1ccc(-c2csc(NC(=O)CN3CCC(C)CC3)n2)cc1	i	0.32
O=C(CCC(=O)N(c1ccc(F)cc1)C(C(=O)NC1CCCC1)c1ccncc1)Nc1cccnc1 (configuration not stated)	i	2.1
CCOC(=O)c1sc2nc(CC(=O)OC)nc(N3CCN(c4ccc(OC)cc4)CC3)c2c1C	i	-0.25
CC(C(=O)NC(=O)NC1CCCCC1)N1CCN(C(c2ccccc2)c2ccccc2)CC1 (configuration not stated)	i	-0.63
CC(C)c1nc(CN(C)C(=O)N[C@H](C(=O)N[C@@H](Cc2ccccc2)C[C@H](O)[C@H](Cc2ccccc2)NC(=O)OCc2cncs2)C(C)C)cs1	i	-3.5
Cc1nc(-c2ccc(C(=O)N3CCCC3)cc2)cs1	i	-0.41
CO[C@@]1(NC(=O)CSCC#N)C(=O)N2C(C(=O)O)=C(CSc3nnnn3C)CS[C@@H]21	i	0.66
Oc1[nH]c2ccc(Br)cc2c1N=Nc1ccc(F)cc1	i	-0.63
CN(C)c1nc(SCC#N)nc(N(C)C)n1	i	-0.74
COc1ccccc1CNC(=O)CN1C(=O)COc2ccc(S(=O)(=O)NC3CCCC3)cc21	i	-2.7
CCC(CC)C(=O)Nc1ccc(Nc2ccccc2)cc1	i	0.55
COc1ccc(C(CC(=O)O)NC(=O)c2ccccc2)cc1OC (configuration not stated)	i	-0.71
C=CCOC(=O)C1=C[C@H](c2csc3ccccc23)[C@@H](CCCO)[C@H](OCC)O1	i	0.83
CCN(CC)S(=O)(=O)c1ccc(C(=O)NCc2ccc3[nH]c4c(c3c2)CCCC4)cc1	i	-0.99
COc1ccc(C=Nc2ccc3[nH]ncc3c2)c(O)c1	i	0.59
CCC(C)NC(=O)C1c2ccccc2C(=O)N1Cc1ccccc1OC (configuration not stated)	i	-0.47
C/C(CC(=O)Nc1cc(C)ccn1)=N\NC(=O)COc1cccc(C)c1	i	-1.1
COc1cc(/C=C2\SC(=S)N(NC(=O)c3cccnc3)C2=O)ccc1O	i	0.92
O=[N+]([O-])c1cccc(/C=N/NS(=O)(=O)c2ccccc2)c1	i	-0.7
Cc1ccc(OCc2nnc(SCC(=O)c3ccccc3)n2Cc2ccco2)cc1	i	-0.04
O=C1CCC(C(=O)OCc2cc(=O)oc3ccc4ccccc4c23)=NN1	i	0.26
Remaining list, next part:
SMILES	KCNQ2 block	KCNQ2 block baseline
CC(=O)n1cc(C2C(=O)CC(C)(C)CC2=O)c2ccccc21	i	0.77
CCOC(=O)c1sc2nc3n(c(=O)c2c1C)CCC(C)CC3 (configuration not stated)	i	0.25
COc1ccc(NCC(=O)Nc2ccc(C#N)cc2)cc1Cl	i	-0.39
COc1ccc(-n2nc(C(=O)NCC(=O)Nc3cc(OC)c(OC)c(OC)c3)c3ccccc3c2=O)cc1Cl	i	-0.07
N=c1sccn1CC(=O)Nc1ccc2c(c1)CCC2	i	-0.56
CCOC(=O)N1CCC(N2CC34C=CC(O3)C(C(=O)Nc3ccc(OCC)cc3)C4C2=O)CC1 (configuration not stated)	i	-0.03
CCNc1nc(NC(C)C)nc(N(C#N)CCOc2ccc(Cl)cc2Cl)n1	i	-0.19
Cc1ccc(-n2ncc3c(=O)n(CC(N)=O)cnc32)cc1	i	1.2
O=C1C(Nc2ccccc2)=C2CCCC=C2N1c1ccccc1	i	1.9
CC1CC(C)CN(S(=O)(=O)c2cc3c4c(c2)C(C)C(=O)N4CCC3)C1 (configuration not stated)	i	0.11
O=C(O)CCCn1cc(NC(=O)COc2ccc(F)cc2)cn1	i	1.2
O=C(c1ccccc1)c1ccccc1N/C=C/c1nnnn1-c1ccccc1	i	-1.3
N#Cc1nc(-c2ccc([N+](=O)[O-])cc2)oc1N1CCCCC1	i	-0.4
CCOc1ccc(-c2nnc(N3CCOCC3)c3ccccc23)cc1	i	0.33
COc1cccc(-n2c(C)nnc2SCC#N)c1	i	0.27
COc1ccc(-n2nc(C(=O)NCC(=O)N3CCN(c4ccccc4OC)CC3)c3ccccc3c2=O)c(OC)c1	i	-0.42
CCCc1cc(C(=O)Cc2ccc(F)cc2)c(O)cc1O	i	-0.4
Cn1c(=O)c2c(nc(Oc3ccccc3Br)n2C)n(C)c1=O	i	0.37
Cc1cc(=O)n2nc(N3CCCC(C(=O)NCc4ccco4)C3)sc2n1 (configuration not stated)	i	-0.47
NC1=NS(=O)(=O)NC1c1cccc(F)c1 (configuration not stated)	i	0.22
COc1ccc(/C=N/OCC(=O)N2CC3(C)CC2CC(C)(C)C3)cc1 (configuration not stated)	i	-0.58
Cc1ccc(NC(=O)CN2CCC(C(N)=O)CC2)cc1[N+](=O)[O-]	i	-0.52
O=C(NCc1ccccc1F)C(=O)NCC1CCCN1S(=O)(=O)c1ccccc1 (configuration not stated)	i	-0.65
c1cnc(N2CCN(Cc3c[nH]c4ccccc34)CC2)nc1	i	-0.16
Nc1nnc(SCC(=O)OCC(=O)NC2CCCCC2)s1	i	4.3
CCOc1ccccc1C(=O)NCCC(=O)O	i	1.5
CCCn1nc(C(=O)N2CCc3ccccc3C2)c2ccccc2c1=O	i	0.84
O=C(COc1ccccc1)N1CCN(c2nnc(-c3ccccc3)c3ccccc23)CC1	i	-0.71
N/C(=N\OC(=O)c1cc(-c2ccccc2)nc2ccccc12)c1cccnc1	i	1.1
COc1cc2c(cc1OC)C(c1ccc(-c3cc(Cl)ccc3Cl)o1)=NCC2	i	-0.04
COCc1cc(=O)[nH]c2c1c(-c1ccccc1)nn2C	i	-1.1
O=C1CCC(=O)N1CCSC(=S)N1CCOCC1	i	-1.2
COc1ccccc1C(=O)NCC(=O)N/N=C/c1cc(Br)ccc1OCc1ccccc1	i	-0.03
O=C(CNC(=O)c1cccs1)c1ccc(Cl)cc1	i	1.7
CN(C)C(=O)/C(=C\c1ccncc1)NC(=O)c1ccccc1	i	1.6
O=C(c1ccccc1)N1N=C(c2ccccc2)CC1c1ccccc1[N+](=O)[O-] (configuration not stated)	i	0.05
CCc1cccc(C)c1NC(=O)CSc1nc2ccncc2[nH]1	i	0.62
Cc1cc(-c2nc(C)c(-c3nnc(SCC(=O)Nc4ccc(Cl)cc4)n3C)s2)no1	i	-1.3
COC(=O)/N=C(/Cc1ccc(OC)cc1)c1ccc(OC)cc1	i	-2.8
COc1c(C(=O)Nc2ccc(Br)cn2)ccc2ccccc12	i	-0.31
Cc1nc(-c2ccc(S(=O)(=O)N3CCN(c4ccccc4)CC3)cc2)co1	i	-0.14
CN(CC(=O)Nc1cccc(F)c1)C(=O)CCNC(=O)c1ccco1	i	-1.9
COc1ccc(Oc2nc(C(F)(F)F)nc3ccccc23)cc1	i	2.7
COc1ccc(/C=C2\SC(=S)N(CCCC(=O)Nc3cccc(C(=O)O)c3)C2=O)cc1OC	i	1.3
COc1ccc(CCNC(=O)CSc2nc3[nH]ncc3c(=O)n2-c2ccc(C)c(Cl)c2)cc1OC	i	-0.61
Cc1cc(SCC(=O)c2ccc(Cl)cc2)nc(=O)[nH]1	i	0.04
C/C(=C\c1ccco1)CN1CCC(N2CCC(C(=O)N3CCOCC3)CC2)CC1	i	-1.3

Among those listed so far, 12 have an aryl thioether with sulfur outside any ring:
SMILES	KCNQ2 block	KCNQ2 block baseline
CCCCCCSc1nnc(-c2cnn(-c3ccccc3)c2-n2cccc2)n1C	i	-1.8
CCOC(=O)C1=C(CSc2nc(-c3ccccc3)ccc2C#N)OC(N)=C(C#N)C1c1cccnc1 (configuration not stated)	i	-1.7
CC1CN(C(=O)CSc2cn(CC(=O)N3CCOCC3)c3ccccc23)CC(C)O1 (configuration not stated)	i	-0.27
CO[C@@]1(NC(=O)CSCC#N)C(=O)N2C(C(=O)O)=C(CSc3nnnn3C)CS[C@@H]21	i	0.66
CN(C)c1nc(SCC#N)nc(N(C)C)n1	i	-0.74
Cc1ccc(OCc2nnc(SCC(=O)c3ccccc3)n2Cc2ccco2)cc1	i	-0.04
COc1cccc(-n2c(C)nnc2SCC#N)c1	i	0.27
Nc1nnc(SCC(=O)OCC(=O)NC2CCCCC2)s1	i	4.3
CCc1cccc(C)c1NC(=O)CSc1nc2ccncc2[nH]1	i	0.62
Cc1cc(-c2nc(C)c(-c3nnc(SCC(=O)Nc4ccc(Cl)cc4)n3C)s2)no1	i	-1.3
COc1ccc(CCNC(=O)CSc2nc3[nH]ncc3c(=O)n2-c2ccc(C)c(Cl)c2)cc1OC	i	-0.61
Cc1cc(SCC(=O)c2ccc(Cl)cc2)nc(=O)[nH]1	i	0.04
